Assay outcomes: PubChem, several laboratories
UCH37 DUB inh – human UCH37 deubiquitinating enzyme inhibition. Q9Y5K5. purified proteasome/UCH37, Ub-AMC cleavage fluorescence. inhibition, % (test concentration not listed). actives 0.33% (n = 330,000). AID 588478;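 active means mean of two replicates above 20%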;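 further: 0% = compound-free wells with enzyme and 100% = wells lacking proteasome; stock transfer was 100 nL into about 20 µL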
Target sequence (Q9Y5K5 whole entry, looked up): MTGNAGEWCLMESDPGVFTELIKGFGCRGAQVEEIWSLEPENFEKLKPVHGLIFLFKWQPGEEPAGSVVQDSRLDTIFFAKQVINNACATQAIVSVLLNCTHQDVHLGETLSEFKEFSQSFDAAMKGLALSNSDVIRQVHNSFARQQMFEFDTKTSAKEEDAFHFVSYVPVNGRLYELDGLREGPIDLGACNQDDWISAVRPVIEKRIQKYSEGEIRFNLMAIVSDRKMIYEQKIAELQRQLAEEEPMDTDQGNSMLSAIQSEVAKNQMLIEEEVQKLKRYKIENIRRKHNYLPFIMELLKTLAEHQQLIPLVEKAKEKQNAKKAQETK
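Material: Human UCH37 enzyme supplied as purified proteasome complex | Schedule: 30 min compound-proteasome preincubation then 25 min substrate reaction, room temperature | Detection: AMC fluorescence from Ub-AMC cleavage, excitation 355 nm, emission 460 nm | Benchmarks: Wells without proteasome as full block, compound-free enzyme plus substrate as uninhibited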
ALR inh – human ALR oxidase inhibition via reduced H2O2; purified ALR, DTT oxidation, H2O2 HRP-luminol luminescence; P55789; inhibition, % (test concentration not listed); actives 3.8% (n = 290,000); AID 485317;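 active means mean and each replicate at 75% or more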;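 further: stock transfer was 7.5 nL into about 7.5 µL; 0% = neutral wells and 100% = wells with inactivated enzyme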
Target sequence (P55789 whole entry, looked up): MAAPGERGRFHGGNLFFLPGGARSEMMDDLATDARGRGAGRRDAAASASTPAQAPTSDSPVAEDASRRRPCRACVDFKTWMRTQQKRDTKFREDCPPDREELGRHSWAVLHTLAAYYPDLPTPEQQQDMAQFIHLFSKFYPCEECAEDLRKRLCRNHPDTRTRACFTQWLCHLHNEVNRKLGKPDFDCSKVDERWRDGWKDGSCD
B2AR ag – agonists of human beta-2 adrenergic receptor inducing internalization | AID 504454 | response, % (concentration not given with the values) | actives 0.43% (n = 340,000) | P07550 | Am2.2-beta2AR cells, FAP receptor internalization, flow cytometry; reference of the scale not given here;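 active means response above a set limit, near 3 SD of response in nonfluorescent compounds, cut at about 42% in these data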;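 further: stock transfer was 100 nL into about 11 µL; a reference agonist was the positive control; negative values mostly stem from fluorescent compounds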
Target sequence (P07550 whole entry, looked up): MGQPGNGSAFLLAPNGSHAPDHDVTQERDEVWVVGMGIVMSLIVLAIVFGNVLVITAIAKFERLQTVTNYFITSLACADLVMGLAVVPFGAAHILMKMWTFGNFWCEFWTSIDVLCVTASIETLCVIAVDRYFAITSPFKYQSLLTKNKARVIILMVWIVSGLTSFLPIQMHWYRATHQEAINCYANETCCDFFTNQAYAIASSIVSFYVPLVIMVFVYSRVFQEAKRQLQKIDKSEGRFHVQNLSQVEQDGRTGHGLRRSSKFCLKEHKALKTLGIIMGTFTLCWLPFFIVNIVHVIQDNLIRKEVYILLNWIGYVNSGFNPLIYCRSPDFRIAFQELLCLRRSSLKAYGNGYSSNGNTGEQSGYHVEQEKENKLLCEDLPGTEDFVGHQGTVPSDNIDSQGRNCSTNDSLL
HNF4A DNA FP – change in binding of human HNF4 alpha to DNA; activity change, % at 10 µM; HNF4a-FITC DNA binding, fluorescence polarization, 1 h; actives 0.3% (n = 360,000); AID 1224865; P41235; in the data active means activity change above about 30%, passing the limit was not always enough;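 further: controls were the assay level and a saturating level of protein; the project sought stronger binding though the title names inhibitors; some compounds called inactive have numbers as strong as hits; positive values seem to mean higher polarization but the record does not say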
Ecoli growth – E. coli growth inhibition | Escherichia coli growth, OD600, 23 h; stronger effect = lower value | OD600 absorbance (test concentration not listed) | actives 0.21% (n = 330,000);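 active means OD600 absorbance below the run mean of sample wells minus 3.6 SD, in any replicate, cut at about 0.56 in these data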;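 further: stock transfer was 300 nL into about 60 µL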
rRNA inh HTS – inhibits bacterial ribosomal RNA function over humanized ribosomes. GFP signal change (wild-type ribosome), % (concentration not given with the values). E. coli WT GFP vs humanized-ribosome RFP mutants, fluorescence, 24 h; stronger effect = lower value; DMSO median 0, no signal -100. actives 1.6% (n = 350,000);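 active means significant combined selectivity score with lowered wild-type GFP, culture density cut under 30%, mutant RFP and density less affected; inactive means any of these conditions unmet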; further: one replicate is shown; some compounds called inactive have numbers as strong as hits
FGF22 binding – FGF22 (human) thermal shift binding; recombinant FGF22 thermal shift, SYPRO orange fluorescence; percent of sucrose octasulfate shift, DMSO zero; calls only at 9.99 µM; Q9HCT0; actives 1.5% (n = 340,000); AID 651658;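 active means melting point raised past a set limit in the mean and every replicate; three in four hits are not shown here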
rRNA inh HTS OD600 – recorded beside rRNA inh HTS, whose call it bears; OD600 change, %; measured here: OD600 growth;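 optical density of the mix in the first replicate; 0 = DMSO median and -100 = no signal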
rRNA inh HTS RFP – recorded beside rRNA inh HTS, whose call it bears; RFP signal change, %; measured here: RFP humanized mutant strains;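 first replicate; 0 = DMSO median and -100 = no signal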
The depositor's hits bear a star. The list is partial, so the mix of outcomes need not match the whole.

Preview, three compounds:
For Cn1nc(C(F)(F)F)c2cc(NC(=O)OCC(C)(C)C)sc21 the results were UCH37 DUB inh 1.0, ALR inh 3, B2AR ag -2, HNF4A DNA FP 3.9 and Ecoli growth 0.71.
Screening O=C(COC(=O)c1ccco1)Nc1cc(S(=O)(=O)N2CCOCC2)ccc1Cl returned UCH37 DUB inh 0.7, ALR inh -2, B2AR ag -3, HNF4A DNA FP 0.2, Ecoli growth 0.68, rRNA inh HTS 19, FGF22 binding inactive, rRNA inh HTS OD600 11 and rRNA inh HTS RFP 2.2.
Cn1nccc1C(=O)OCC(=O)Nc1ccc(S(N)(=O)=O)cc1 was read as UCH37 DUB inh 4.5, ALR inh -3, B2AR ag -2, HNF4A DNA FP -1.7, Ecoli growth 0.72, rRNA inh HTS 3, FGF22 binding inactive, rRNA inh HTS OD600 8 and rRNA inh HTS RFP -3.8.

Main list, from the first entry:
For Cn1nc(C(F)(F)F)c2cc(NC(=O)OCC(C)(C)C)sc21 the results were UCH37 DUB inh 1.0, ALR inh 3, B2AR ag -2, HNF4A DNA FP 3.9 and Ecoli growth 0.71.
Screening O=C(COC(=O)c1ccco1)Nc1cc(S(=O)(=O)N2CCOCC2)ccc1Cl returned UCH37 DUB inh 0.7, ALR inh -2, B2AR ag -3, HNF4A DNA FP 0.2, Ecoli growth 0.68, rRNA inh HTS 19, FGF22 binding inactive, rRNA inh HTS OD600 11 and rRNA inh HTS RFP 2.2.
Cn1nccc1C(=O)OCC(=O)Nc1ccc(S(N)(=O)=O)cc1 was read as UCH37 DUB inh 4.5, ALR inh -3, B2AR ag -2, HNF4A DNA FP -1.7, Ecoli growth 0.72, rRNA inh HTS 3, FGF22 binding inactive, rRNA inh HTS OD600 8 and rRNA inh HTS RFP -3.8.
Screening O=C(CSc1nc(-c2ccc(F)cc2)cs1)Nc1ccccn1 returned UCH37 DUB inh 4.5, ALR inh -3, B2AR ag 10, HNF4A DNA FP -2.1, Ecoli growth 0.71, rRNA inh HTS 12, FGF22 binding inactive, rRNA inh HTS OD600 6 and rRNA inh HTS RFP 1.1.
`COc1cc(NC(=O)c2cc3ccccc3cc2O)c(OC)cc1Cl` gave UCH37 DUB inh -203, ALR inh -20, B2AR ag 21, HNF4A DNA FP -4.1, Ecoli growth 0.64, rRNA inh HTS -32, FGF22 binding inactive, rRNA inh HTS OD600 -30 and rRNA inh HTS RFP -2.4.
For CCc1nnc(NC(=O)CSc2nnc(Cc3cccn3C)n2C)s1 the results were UCH37 DUB inh 1.5, ALR inh 18, B2AR ag 26, HNF4A DNA FP 3.2, Ecoli growth 0.76, rRNA inh HTS 2, FGF22 binding inactive, rRNA inh HTS OD600 10 and rRNA inh HTS RFP 0.7.
`COCCN(C(=S)Nc1cccc(OC)c1)C1CCN(C(C)=O)CC1` gave UCH37 DUB inh 2.4, ALR inh -9, B2AR ag 13, HNF4A DNA FP 0.0 and Ecoli growth 0.7.
`Cc1ccccc1OCC(=O)NC(=S)Nc1ccc(Br)c(C)n1` gave UCH37 DUB inh 2.1, ALR inh 2, B2AR ag -13, HNF4A DNA FP -2.8 and Ecoli growth 0.71.
CCN(c1ccc(OC)cc1)S(=O)(=O)c1nnc(NC(=O)COc2ccccc2)s1 was read as UCH37 DUB inh 0.7, ALR inh -5, B2AR ag -1, HNF4A DNA FP 2.3, Ecoli growth 0.75, rRNA inh HTS 7, FGF22 binding inactive, rRNA inh HTS OD600 6 and rRNA inh HTS RFP 5.5.
CC(C)Nc1nc(Oc2ccc(Cl)cc2)cc(C(F)(F)F)n1 was read as UCH37 DUB inh -1.1, ALR inh -1, B2AR ag 10, HNF4A DNA FP -1.4 and Ecoli growth 0.62.
CCOC(=O)CSc1nc2cc(C(=O)N3CCC(C(N)=O)CC3)ccc2c(=O)n1-c1ccccc1 was read as UCH37 DUB inh 0.5, B2AR ag 2, HNF4A DNA FP 0.6 and Ecoli growth 0.69.
For COc1ccccc1-c1coc2c(CN(C)C)c(O)ccc2c1=O the results were UCH37 DUB inh inactive, ALR inh -4, B2AR ag 2, HNF4A DNA FP -1.0, Ecoli growth 0.69, rRNA inh HTS 3, FGF22 binding inactive, rRNA inh HTS OD600 5 and rRNA inh HTS RFP -1.3.
For O=S(=O)(Cc1ccccc1)NCCc1cccc(Cl)c1 the results were UCH37 DUB inh 1.2, ALR inh -1, B2AR ag -7, HNF4A DNA FP 1.7, Ecoli growth 0.69, rRNA inh HTS -18, FGF22 binding inactive, rRNA inh HTS OD600 -36 and rRNA inh HTS RFP -3.0.
Screening N#CCC(=O)Nc1ccc(C(=O)OCC(=O)c2ccc3c(c2)OCCO3)cc1 returned UCH37 DUB inh -3.4, ALR inh 63, B2AR ag 7, HNF4A DNA FP 5.6, Ecoli growth 0.67, rRNA inh HTS 0, FGF22 binding inactive, rRNA inh HTS OD600 6 and rRNA inh HTS RFP 18.
Screening O=C/C=C/c1coc2ccc3ccccc3c2c1=O returned UCH37 DUB inh 4.0, Ecoli growth 0.64, rRNA inh HTS 11, FGF22 binding inactive, rRNA inh HTS OD600 24 and rRNA inh HTS RFP 7.0.
`CC(C)C1C(=O)N(Cc2cn(CCC3OCCO3)nn2)CCS(=O)(=O)N1Cc1ccc(-c2ccccc2Cl)cc1` (configuration not stated) gave HNF4A DNA FP 6.0, rRNA inh HTS -1, FGF22 binding inactive, rRNA inh HTS OD600 -10 and rRNA inh HTS RFP 0.6.
For Cc1cccc(NS(=O)(=O)c2cccc(C(=O)NCCCN3CCCC3=O)c2)c1 the results were UCH37 DUB inh 1.7, ALR inh -16, B2AR ag 5, HNF4A DNA FP 1.9, Ecoli growth 0.7, rRNA inh HTS -4, FGF22 binding inactive, rRNA inh HTS OD600 -1 and rRNA inh HTS RFP 1.9.
Cc1ccc(C(=O)N2CC3(C(C)C)CN(C(=O)c4ccc(C)cc4)CC(C(C)C)(C2)C3=O)cc1 was read as UCH37 DUB inh 2.4, ALR inh -8, B2AR ag -3, HNF4A DNA FP 0.9 and Ecoli growth 0.67.
COc1ccc(C)cc1S(=O)(=O)N1CCN(C(=O)c2ncoc2-c2cccc(C)c2)CC1 was read as UCH37 DUB inh 4.1, B2AR ag 4, HNF4A DNA FP -1.8, Ecoli growth 0.69, rRNA inh HTS -5, FGF22 binding inactive, rRNA inh HTS OD600 -1 and rRNA inh HTS RFP -2.4.
`COc1ccc(C(=O)Nc2ccncc2)cc1OC` gave UCH37 DUB inh -0.2, ALR inh 1, B2AR ag -10, HNF4A DNA FP -4.1, Ecoli growth 0.67, rRNA inh HTS 7, FGF22 binding inactive, rRNA inh HTS OD600 5 and rRNA inh HTS RFP -1.1.
`Cc1c(Cl)cccc1NC(=S)N(CCN(C)C)C(C)c1ccco1` (configuration not stated) gave UCH37 DUB inh 3.7, ALR inh -9, B2AR ag 3, HNF4A DNA FP -0.2, Ecoli growth 0.68, rRNA inh HTS 7, FGF22 binding inactive, rRNA inh HTS OD600 -1 and rRNA inh HTS RFP 0.5.
For N#Cc1ccsc1NC(=O)C1CCN(S(=O)(=O)c2cccs2)CC1 the results were UCH37 DUB inh 1.1, ALR inh -5, B2AR ag 7, HNF4A DNA FP -5.0, Ecoli growth 0.67, rRNA inh HTS -7, FGF22 binding inactive, rRNA inh HTS OD600 -5 and rRNA inh HTS RFP 4.2.
`COc1cccc(C(C)NC(=S)NCc2ccc(F)cc2)c1` (configuration not stated) gave UCH37 DUB inh 6.4, ALR inh -6, B2AR ag -5, HNF4A DNA FP 5.1, Ecoli growth 0.67, rRNA inh HTS -8, FGF22 binding inactive, rRNA inh HTS OD600 -1 and rRNA inh HTS RFP -2.5.
For N/C(Cn1cncn1)=N\NC(=O)C(=O)Nc1ccccc1 the results were UCH37 DUB inh 0.7, ALR inh -6, B2AR ag -7, HNF4A DNA FP -0.7, rRNA inh HTS 10, FGF22 binding inactive, rRNA inh HTS OD600 14 and rRNA inh HTS RFP -2.2.
COC(=O)c1cc(S(=O)(=O)N2CCCCCC2)c[nH]1 was read as UCH37 DUB inh 4.2, ALR inh 1, B2AR ag 2, HNF4A DNA FP -1.2 and Ecoli growth 0.67.
For c1coc(CNc2nc(-c3cccs3)cs2)c1 the results were UCH37 DUB inh 2.5, B2AR ag 1, HNF4A DNA FP 6.1, Ecoli growth 0.68, rRNA inh HTS 1, FGF22 binding inactive, rRNA inh HTS OD600 6 and rRNA inh HTS RFP 10.
Screening CCOC(=O)C1(CCOC)CCN(Cc2nc(-c3cccs3)oc2C)CC1 returned UCH37 DUB inh -3.4, B2AR ag -1, HNF4A DNA FP -0.8, Ecoli growth 0.66, rRNA inh HTS 5, FGF22 binding inactive, rRNA inh HTS OD600 1 and rRNA inh HTS RFP 1.3.
`CC12CCC(=O)N1C(C(=O)Nc1nc3c(F)cc(F)cc3s1)CS2` (configuration not stated) gave UCH37 DUB inh 4.8, ALR inh -6, B2AR ag 10, HNF4A DNA FP 4.1, Ecoli growth 0.72, rRNA inh HTS 1, FGF22 binding inactive, rRNA inh HTS OD600 6 and rRNA inh HTS RFP 6.7.
Screening CCOc1ccc(C(=O)OC2CCN(C)CC2)cc1 returned UCH37 DUB inh 1.6, ALR inh 1, B2AR ag -6, HNF4A DNA FP -3.1 and Ecoli growth 0.79.
For Cc1ccc(-c2cc(=O)c3ccc(Cl)cc3[nH]2)cc1 the results were UCH37 DUB inh -0.2, ALR inh -1, B2AR ag -7, HNF4A DNA FP -4.5, Ecoli growth 0.68, rRNA inh HTS 15, FGF22 binding inactive, rRNA inh HTS OD600 17 and rRNA inh HTS RFP -0.5.
Screening Cc1nn(C(C)(C)C)c(NC(=O)c2ccc(Cl)cc2Cl)c1Br returned UCH37 DUB inh 0.3, ALR inh -5, B2AR ag -1, HNF4A DNA FP -2.7, Ecoli growth 0.68, rRNA inh HTS -14, FGF22 binding inactive, rRNA inh HTS OD600 -10 and rRNA inh HTS RFP -0.1.
`C/C=C(\C)C(=O)OC1CC(C)(C)C[C@H]2C3=CC[C@@H]4[C@@]5(C)CCC(O[C@@H]6O[C@@H](C(=O)O)[C@@H](O)C(O[C@@H]7OC[C@H](O)[C@@H](O)[C@@H]7O[C@@H]7OC(CO)C(O)[C@@H](O)[C@@H]7O)C6O[C@@H]6OC(CO)C(O)C(O)C6O)[C@@](C)(CO)[C@@H]5CC[C@]4(C)[C@]3(C)CC(O)[C@@]12CO` (some centres not stated) gave UCH37 DUB inh -0.9, ALR inh 9, B2AR ag -2, HNF4A DNA FP 4.8, rRNA inh HTS 18, FGF22 binding inactive, rRNA inh HTS OD600 15 and rRNA inh HTS RFP 5.3.
For CCC(=O)Nc1cccc(NC(=O)c2ccccc2Cl)c1 the results were UCH37 DUB inh 1.7, ALR inh -2, B2AR ag 3, HNF4A DNA FP 3.9, Ecoli growth 0.61, rRNA inh HTS -9, FGF22 binding inactive, rRNA inh HTS OD600 -7 and rRNA inh HTS RFP -1.8.
`Cc1ccccc1OCC(=O)N/N=C/c1ccc(N(C)C)cc1` gave ALR inh 62, B2AR ag -4, HNF4A DNA FP 4.0, rRNA inh HTS 23, FGF22 binding inactive, rRNA inh HTS OD600 -16 and rRNA inh HTS RFP -2.2.
For COc1cc2c(cc1OC)C(C)N(C(=O)Nc1cc(C)cc(C)c1)CC2 (configuration not stated) the results were UCH37 DUB inh 1.2, B2AR ag 11, HNF4A DNA FP 1.0, Ecoli growth 0.69, rRNA inh HTS 6, FGF22 binding inactive, rRNA inh HTS OD600 -4 and rRNA inh HTS RFP -0.4.
